# 2A StopGo: lowers the luciferase signal of an FMDV 2A StopGo reporter; human cells with a luciferase reporter of 2A StopGo recoding; control for the full effect not named in the record; 410,000 compounds, 1.2% hits; Potency, µM (highest dose often 57.9 µM), for inactives: top-dose signal change, negative = less light; active = well fitted falling curve with a large enough effect; inconclusive = small, poorly fitted or top-dose-only effect; inactive = no such curve, though single readings can be large or run the other way; tested in HEK293T cells; further: on the % scale 0 is the no-effect control and ±100 the full control effect; nearly all actives have a fitted effect of over 45% in size; luciferase light after 4 h
# RE007 growth inh: less growth of the S. pombe RE007 Vpr strain; S. pombe RE007 Vpr strain, BacTiter-Glo ATP luminescence, 24 h; control for the full effect not named in the record; Potency, µM (doses to about 92.2 µM), for inactives: at the highest dose activity change, negative = less growth; 360,000 compounds, 0.21% hits; AID 651644; active = well fitted falling curve with a large enough effect; inconclusive = small, poorly fitted or top-dose-only effect; inactive = no such curve, though single readings can be large or run the other way;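 further: on the % scale 0 is the no-effect control and ±100 the full control effect; nearly all actives have a fitted effect of over 50% in size; the assay follows cell death caused by Vpr and the record does not say whether a fall means rescue or toxicity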
#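 Fission yeast strain RE007, carrying one chromosomally integrated HIV-1 vpr copy, was seeded at OD 0.01 in PMG+AL medium with 23 nL pinned compound. After 24 h at 30 °C and 99% humidity, viability was read by BacTiter-Glo luminescence.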
# Lassa entry inh: inhibitors of Lassa virus binding or cell entry; 300,000 compounds, 1.2% hits; Potency, µM (top dose mostly 37.9 µM), inactives show top-dose activity change, negative = inhibition, actives largely listed as inhibitors; Lassa virus pseudotype entry inhibition, cell reporter; control for the full effect not named in the record; AID 540256; active means well fitted inhibition curve with a large enough effect; inconclusive means small, poorly fitted or top-dose-only effect, or effect the other way; inactive means flat fitted curve, though single readings scatter; tested in HEK293 cells; further: on the % scale 0 is the no-effect control and ±100 the full control effect; nearly all actives have a fitted effect of over 50% in size; luciferase read-out
# SARS PLP yeast: inhibitors of SARS-CoV papain-like protease in yeast; AID 485353; 330,000 compounds, 0.19% hits; Potency, µM (titrated, usually from 32.9 µM), without a hit: at the highest dose activity, positive = growth rescue; S. cerevisiae expressing SARS-CoV PLpro, growth rescue; control for the full effect not named in the record; active means well fitted rising curve with a large enough effect; inconclusive means small, poorly fitted or top-dose-only effect; inactive means no such curve, though single readings can be large or run the other way; further: 0% is about no effect; nearly all actives have a fitted effect of over 55% in size; growth read by luminescence after 48 h
# MARV entry inh: Marburg virus entry inhibition; Marburg virus pseudotyped entry inhibition, cell reporter; control for the full effect not named in the record; about a third of the inactives were read at about 46 µM; Potency, µM (highest dose often 37.8 µM), without a hit: at the highest dose activity change, negative = inhibition, actives largely listed as inhibitors; 300,000 compounds, 1.8% hits; AID 540276; active = well fitted inhibition curve with a large enough effect; inconclusive = small, poorly fitted or top-dose-only effect, or effect the other way; inactive = flat fitted curve, though single readings scatter; tested in HEK293 cells; about a fifth of its hits are not listed in these tables; further: on the % scale 0 is the no-effect control and ±100 the full control effect; luciferase read-out
# Cruzain noTriton: blocks cruzain activity in detergent-free assay; P25779; purified cruzain, Z-FR-AMC fluorescence, no detergent; Potency, µM, for the others: max response, negative = inhibition, hits mostly inhibitors; 200,000 compounds, 2.3% hits;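 further: plate controls were enzyme without inhibitor for no effect and buffer without enzyme for full effect; nearly all actives have a fitted effect of over 40% in size; top concentration of the series not given in the record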
# Target sequence (P25779 123-467 limits assumed): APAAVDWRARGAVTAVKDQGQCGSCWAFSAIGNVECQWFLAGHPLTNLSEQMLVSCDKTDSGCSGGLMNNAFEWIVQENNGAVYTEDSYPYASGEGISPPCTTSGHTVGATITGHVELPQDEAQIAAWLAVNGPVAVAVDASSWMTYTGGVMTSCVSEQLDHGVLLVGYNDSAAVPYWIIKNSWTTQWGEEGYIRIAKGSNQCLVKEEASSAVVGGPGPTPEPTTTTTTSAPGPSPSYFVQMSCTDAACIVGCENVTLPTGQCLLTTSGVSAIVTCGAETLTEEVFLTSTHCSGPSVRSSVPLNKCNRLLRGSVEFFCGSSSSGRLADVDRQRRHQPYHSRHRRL
#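 Purified cruzain at 1.5 nM, pre-incubated 15 min with compound at room temperature in 100 mM sodium acetate pH 5.5, 5 mM DTT, 0.00005% Triton X-100. Reaction started with 2 uM Z-FR-AMC; AMC fluorescence increase over 60 s gives rate.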
# NS1 inh: inhibitors of influenza NS1 protein function | S. cerevisiae slowed by influenza A NS1, growth recovery by OD600 | Potency, µM (titrated, usually from 46.1 µM), inactives show at the top dose activity, positive = more growth | 270,000 compounds, 0.4% hits | AID 2326; active means well fitted rising curve with a large enough effect; inconclusive means small, poorly fitted or top-dose-only effect; inactive means no such curve, though single readings can be large or run the other way; further: nearly all actives have a fitted effect of over 50% in size
#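 A cell-based growth assay was used: compounds that relieve NS1-induced slow growth of budding yeast raise OD600. Assay medium was yeast nitrogen base with ammonium sulphate and -URA supplement, pH 6.0, with 2% galactose.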
# Cruzain inh Det: inhibitors of Trypanosoma cruzi cruzain with detergent; 200,000 compounds, 0.43% hits; P25779; purified cruzain, Z-FR-AMC fluorescence, 0.01% Triton; AID 1478; Potency, µM, for inactives: max response, negative = inhibition, most hits filed as inhibitors;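 further: plate controls were neutral wells for no effect and buffer without enzyme for full effect; nearly all actives have a fitted effect of over 40% in size; top concentration of the series not given in the record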
#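 In this qHTS format, compounds are incubated with 1.5 nM cruzain for 15 min at room temperature before 2 uM Z-FR-AMC is added. Release of AMC is followed at 360/450 nm, and progress is taken as the 60 s fluorescence difference.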
# The depositor's hits bear a star; ? = inconclusive; . = no result given; & = joins results of further samples; [ ] = remark or other dose. Unless noted, the call rests on the fitted dose curve; in most records, active means well fitted curve in the direction sought with a large enough effect; inconclusive means small, poorly fitted or top-dose-only effect, or another doubt; inactive means no such curve, though single readings can be large; an effect the other way counts as inactive or inconclusive. Potency means the concentration at half of the fitted maximal effect.
# Screens in order – 2A StopGo | RE007 growth inh | Lassa entry inh | SARS PLP yeast | MARV entry inh | Cruzain noTriton | NS1 inh | Cruzain inh Det
COc1ccc(C2=Nn3c(nnc3-c3ccco3)SC2)cc1OC
  23% | 9% | -17% | 2% | -26% | 3% | 15% | -4.4%
COc1c(Cl)cc(C(=O)NN)cc1Cl
  -6% | -8% | -22% | -1% | ? | . | 1% | .
COc1ccc(N2CCN(CCNC(=O)C3CCN(S(=O)(=O)c4cccs4)CC3)CC2)cc1
  -19% | -17% | -5% | -2% | -3% | 2% | -5% | 5.9%
COc1cc(C(=O)NCCc2ccc(F)cc2)ccc1OCC(=O)N1CCOCC1
  -16% | 39% | -1% | -9% | -1%[46.1 µM] | . | . | .
Cc1cccc(N2CCN(C(=O)NCc3ccc(Cl)cc3)CC2)c1
  -19% | -1% | -10% | -10% | ? | -10% | 9% | -1.1%
COc1ccccc1N1CCc2c(C)nc3c(OC)cccc3c21
  ? | -13% | -14% | 4% | ? | -12% | -3% | -3.7%
CC(C)(C)OC(=O)NN1CC(=O)N2Cc3ccccc3C[C@@H]2C1=O
  -2% | 6% | . | 3% | . | . | 2% | .
Cc1ccc(CC(=O)O/N=C(\N)c2cccc([N+](=O)[O-])c2)cc1
  27% | 0% | -4% | . | -2% | -1% | -15% | -2.5%
O=C(O)c1ccc(S(=O)(=O)NCC2CCCO2)cc1 (stereo not drawn)
  -8% | 8% | . | 5% | . | . | 17% | .
CCCCCOc1ccc(C(O)C(CN2CCOCC2)c2ccccc2)cc1 (stereo not drawn)
  -26% | -13% | -13%[46.1 µM] | -8% | ? | . | -27% | .
Nc1nc(N)c2[nH]c(-c3ccccc3)nc2n1
  55%[activator] | -8% | 7% | 4% | -17% | . | ? | .
CCC(C)C(NC(C)=O)C(=O)NC(=O)NC(c1ccccc1)c1ccccc1 (stereo not drawn)
  . | -2% | -23% | 5% | -9% | ? | -1% | -0.3%
COc1ccc(NC(=O)Nc2c(C)n(-c3ccccc3)c(=O)n2C)cc1OC
  -4% | 11% | 6% | -2% | -21% | 1% | 1% | 4.6%
CN(Cc1ccccc1)C(=O)CCc1ccccc1
  41%[activator] | 1% | 0% | 0% | 21% | 3% | -1% | 0.9%
CCn1c(=O)c(C(=O)Nc2ccccn2)c(O)c2ccccc21
  -6% | -7% | 29%[46.1 µM] | -1% | 12%[46.1 µM] | . | -1% | .
CCn1nnnc1SCC(=O)N1N=C(c2cccs2)CC1c1cccs1 (stereo not drawn)
  46%[activator] | -1% | -25% | 2% | 10% | . | . | .
Clc1ccc(-n2nnnc2CN2CCOCC2)cc1Cl
  0% | 1% | 1% | -7% | 17% | 6% | 2% | -3.7%
O=C(OCC(=O)N1CCC(Cc2ccccc2)CC1)c1ccc[nH]c1=O
  -22% | -8% | -2% | 0% | 2% | -7% | 2% | 1.7%
CC(Sc1nc2ccccc2c(=O)n1C)C(=O)N(C)C1CCCCC1 (stereo not drawn)
  ? | 10% | ? | -2% | ? | . | . | .
NC(=S)NN=C1c2cc(OCCN3CCOCC3)ccc2-c2ccc(OCCN3CCOCC3)cc21
  18µM* | -14% | ? | 0% | ? | . | 5% | .
CC(NC(=O)C(=O)NN=C1CCCCCCC1)c1ccccc1 (stereo not drawn)
  2% | 13% | -1% | 3% | 8%[46.1 µM] | 3% | 10% | 4.1%
Cc1nc(SCc2ccc(Cl)cc2)ncc1C(=O)O
  20% | 3% | -14% | -4% | 20%[46.1 µM] | . | . | .
O=C(CNC(=O)c1cccc(F)c1)OCc1cc(=O)n2cc(Br)ccc2n1
  -8% | 6% | 9% | 15% | 17% | -14% | 8% | -20%
CCOc1ccc(-c2nnc(NC(=O)c3ccc(OCC(C)C)c(OC)c3)o2)cc1
  11% | -9% | -24% | -13% | -17%&-17% | 15% | -19% | -0.4%
CCOc1ccc(-n2c(C)nc3cc(C(=O)NCCC4=CCCCC4)ccc32)cc1
  6% | . | ? | . | . | 7% | . | -8.0%
CC(C)C(NS(=O)(=O)c1cccs1)C(=O)NCc1ccccc1 (stereo not drawn)
  -3% | -10% | -1% | -2% | -11%[46.1 µM] | . | -5% | .
CCOc1ccc(/C=C/C(=O)Oc2ccccc2)cc1
  43%[activator] | -5% | -4% | -1% | ? | . | 2% | .
COCCNC(=O)Cn1c(=O)n(Cc2ccco2)c(=O)c2ccccc21
  -13% | 7% | ? | 3% | 5% | -5% | 2% | 4.2%
CCc1c(C)nc2[nH]ncn2c1=O
  -5% | 13% | 14%[46.1 µM] | . | ? | . | . | .
CCN(CC(=O)NCc1cccs1)C(=O)CCOc1ccccc1C
  -20% | ? | -6% | -9% | 1% | . | -1% | .
Cc1ccc(NC(=O)C2CC(=O)NC(N3CCCCC3)=N2)cc1Cl (stereo not drawn)
  -2% | 0% | -14% | 5% | -12%[46.1 µM] | 3% | 4% | 4.6%
CCCCN1C(=O)c2ccc(C(=O)Nc3cccc(C)c3C)cc2C1=O
  1% | 17% | 13% | 2% | 2% | ? | 3% | 0.6%
Cc1ccc2[nH]c3c(=O)n(CC(=O)NCCc4ccc(Cl)cc4)ncc3c2c1
  20%&-7% | 2% | -9%&17%[46.1 µM] | 1% | 6%&6%[46.1 µM] | 3% | 7% | 0.4%
CCN(CC)S(=O)(=O)c1ccc(N2CCOCC2)c(NC(=O)c2ccc(NC(C)=O)cc2)c1
  5% | 0% | . | -2% | . | . | -14% | .
O=C(Cc1ccc(Cl)cc1)NN1C(=O)c2ccccc2C1=O
  -9% | -7% | 0% | 5% | 7% | -3% | 7% | -3.7%
CSCCC(NS(=O)(=O)c1ccc(Cl)cc1)C(=O)OCc1c(Cl)cccc1Cl (stereo not drawn)
  -29% | 4% | ? | -5% | ? | -7% | 0% | -4.1%
Cc1csc(NC(=O)C2CCCN(S(=O)(=O)c3cccnc3)C2)n1 (stereo not drawn)
  -10% | 18% | . | 0% | . | -1% | -4% | 0.7%
Cc1ccc2nc(NC(=O)C3CCCN(S(=O)(=O)c4cccc5nsnc45)C3)sc2c1 (stereo not drawn)
  -8% | -5% | ? | -10% | ? | ? | 9% | -3.7%
O=C(COC(=O)Cc1c[nH]c2ccccc12)NCCc1ccccc1
  -3% | -1% | 13% | -7% | -10%[46.1 µM] | . | . | .
Cc1ccc(NC(=O)COC(=O)Cn2cnc3ccccc32)c(C)c1
  0% | -9% | -6% | -17% | ? | . | . | .

# Some values from the results shown.
# CCCCN1C(=O)c2ccc(C(=O)Nc3cccc(C)c3C)cc2C1=O @ NS1 inh = 3%
# CCOc1ccc(/C=C/C(=O)Oc2ccccc2)cc1 @ SARS PLP yeast = -1%

# Going on with the list:
# Screens in order – 2A StopGo | RE007 growth inh | Lassa entry inh | SARS PLP yeast | MARV entry inh | Cruzain noTriton | NS1 inh | Cruzain inh Det
CCn1c(COc2ccc(OC)cc2)nnc1SCC(=O)Nc1cc(OC)ccc1OC
  14% | 26% | -8% | -1% | -24% | 18% | -10% | -1.7%
O=c1cc(Cn2nnc(-c3ccc(Cl)cc3)n2)nc2sccn12
  ? | 20% | 5% | -5% | -32% | 1% | -30% | -4.8%
CCNC(=S)Nc1cc(Cl)ccc1Oc1ccccc1
  7% | 16% | -12% | 12% | -12% | -18% | -7% | -2.5%
COc1ccc2[nH]c(O)c(N=NC(=O)Cc3cccs3)c2c1
  12% | 0% | . | -1% | . | . | -7% | .
CCN1CCN(C(c2nnnn2Cc2ccc3c(c2)OCO3)C(C)C)CC1 (stereo not drawn)
  -7% | -11% | 4% | -20% | -3% | -9% | 0% | 3.0%
Cc1ccc(S(=O)(=O)NC2CC2)cc1
  20% | 1% | . | 1% | . | . | 10% | .
O=C(Nc1ccc2c(c1)CN(Cc1ccccc1O)CC2)C1CCCO1 (stereo not drawn)
  -6% | 6% | . | -1% | . | . | -17% | .
COc1ccc(Nc2nc(NCC3CCCO3)nc(N)c2[N+](=O)[O-])cc1 (stereo not drawn)
  -23% | -4% | . | 0% | . | . | -3% | .
Cc1c(C(=O)Nc2ccccc2)cc(-c2ccccc2)n1CCCN1CCOCC1
  ? | -13% | ? | -1% | -4% | . | -5% | .
CCCc1nnc(NC(=O)CN2C(=O)c3ccccc3C2=O)s1
  -14% | 0% | 0% | 23% | -10%[46.1 µM] | -14% | 10% | 14%
CN(C1CCCCC1)S(=O)(=O)c1ccc(NC(=O)c2ccco2)cc1
  -7% | 23% | 11µM* | -9% | -6% | -8% | -39% | -11%
CCCCN(C(=O)c1c(CC)noc1C)c1c(N)n(CC(C)C)c(=O)[nH]c1=O
  -12% | 1% | 12% | 5% | ? | . | . | .
O=C(O)C1=CCCc2ccc(F)cc21
  -5% | 4% | 0%[46.1 µM] | . | 1%[46.1 µM] | . | . | .
O=C(NCCCCNC(=O)C(F)(F)F)C(F)(F)F
  -25% | 0% | 3%[46.1 µM] | 1% | 2%[46.1 µM] | . | . | .

# Part of the list above in order of length of the SMILES, low to high:
# Screens in order – 2A StopGo | RE007 growth inh | Lassa entry inh | SARS PLP yeast | MARV entry inh | Cruzain noTriton | NS1 inh | Cruzain inh Det
Cc1ccc(S(=O)(=O)NC2CC2)cc1
  20% | 1% | . | 1% | . | . | 10% | .
O=C(Nc1ccc2c(c1)CN(Cc1ccccc1O)CC2)C1CCCO1 (stereo not drawn)
  -6% | 6% | . | -1% | . | . | -17% | .
CCn1c(COc2ccc(OC)cc2)nnc1SCC(=O)Nc1cc(OC)ccc1OC
  14% | 26% | -8% | -1% | -24% | 18% | -10% | -1.7%
